Screening data deposited in PubChem BioAssay by several laboratories.
T cruzi repl – blocks replication of Trypanosoma cruzi. T. cruzi beta-gal in NIH3T3, luminescence, 90 h. inhibition, % (no concentration beside the values). 300,000 tested, 1.4% active;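 active = mean inhibition across valid replicates above about 55%, limit read from the data; inconclusive = mean below that limit but half or more replicates reach it; inactive = mean below it, under half of replicates reach it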;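 note: signal also drops with host cell toxicity which is not excluded here; 0% = plate median of DMSO wells and 100% = zero luminescence signal; higher percent means less beta-gal luminescence so fewer parasites; stock transfer was 50 nL into about 50 µL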
Vif A3G – HIV-1 Vif–A3G interaction blockers – biochemical, TR-FRET, GST-Vif 1-94, biotin-A3G peptide, dose response retest, primary screen (AID 1117319); TR-FRET GST-Vif / biotin-A3G peptide binding; higher % means a stronger effect; test concentration not given here; strong numbers were not always called active; inhibition, %, or IC50 in µM where a hit was titrated; 260,000 tested, 0.57% active;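 active = above the screen mean plus three standard deviations and confirmed in dose response; inconclusive = results disagree or hit not tested in dose response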;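 note: Vif residues 1-94 fused to GST binding biotinylated APOBEC3G peptide 110-148; 0% = full assay without inhibitor and 100% = GST in place of GST-Vif; retest series ran down from 100 µM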
AF4-AF9 inh – inhibitors of human MLL-AF4/AF9 interaction; P42568; AlphaScreen, biotin-AF4 peptide binding to FLAG-AF9; inhibition, % at 10 µM; 350,000 tested, 0.47% active;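 active = every replicate reaching a set inhibition limit, whatever the replicate mean, cut at about 25% in these data; inconclusive = mean inhibition reaches that limit but some replicates miss it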;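 note: 0% = plate neutral control median and 100% = total signal loss; the record names both 10 and 1 µM as test concentration; the first replicate is given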
Target sequence (P42568 whole entry, looked up): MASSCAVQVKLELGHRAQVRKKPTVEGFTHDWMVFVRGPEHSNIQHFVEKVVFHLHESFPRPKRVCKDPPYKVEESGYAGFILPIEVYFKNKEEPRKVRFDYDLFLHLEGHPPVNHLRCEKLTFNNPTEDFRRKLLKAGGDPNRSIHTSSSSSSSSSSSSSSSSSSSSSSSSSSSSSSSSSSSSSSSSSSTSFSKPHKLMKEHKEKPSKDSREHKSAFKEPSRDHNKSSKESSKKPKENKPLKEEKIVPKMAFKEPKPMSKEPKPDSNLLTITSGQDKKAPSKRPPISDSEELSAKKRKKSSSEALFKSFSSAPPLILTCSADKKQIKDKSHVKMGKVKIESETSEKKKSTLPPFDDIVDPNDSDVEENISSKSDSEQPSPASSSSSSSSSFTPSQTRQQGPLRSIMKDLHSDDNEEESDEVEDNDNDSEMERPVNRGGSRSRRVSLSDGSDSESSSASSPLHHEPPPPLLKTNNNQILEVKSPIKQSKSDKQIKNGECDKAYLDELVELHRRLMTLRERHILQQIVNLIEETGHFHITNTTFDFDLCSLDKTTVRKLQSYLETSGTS
Beta apoptosis – blocks beta cell apoptosis. protection from apoptosis, % (no concentration beside the values). 300,000 tested, 0.8% active. INS-1E cytokine-induced death, ATP luminescence, 48 h; percent of positive-control rescue, neutral wells zero;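 active = all replicates at 75% or more, or half of them and the mean; inconclusive = half reach 75% but not the mean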;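 note: 0% = cytokine-treated negative control wells and 100% = positive control rescue; higher means more ATP so stronger rescue from cytokine killing; wells of about 40 µL received 100 nL stock; the first replicate is given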
LANA-H2B inh – blocks KSHV LANA binding to histone H2A/H2B. 320,000 tested, 0.6% active. inhibition, % (test concentration not listed). cell-free LANA-H2A/H2B peptide, fluorescence polarization. AID 2629; in the data active = inhibition mostly above about 10%, no sharp cut-off; inactive = mostly below about 6.7%;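 note: stock transfer was 7.5 nL into about 10 µL; 0% = median of vehicle wells and 100% = median of positive control wells; one replicate is shown; the record names a cut of 25% in any replicate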
Calb FLC – C. albicans growth modulation with fluconazole; C. albicans CaCi-2 (fluconazole-resistant clinical isolate) + fluconazole, Alamar Blue growth, 48 h; 300,000 tested, 0.57% active; AID 1979; growth inhibition, % (no concentration beside the values);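 active = most replicates above 75%; inconclusive = exactly half above 75%; inactive = most below 75%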;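 note: all wells also contain fluconazole at 8 µg/ml as a sub-toxic cotreatment; 0% = median of DMSO wells and 100% = median of geldanamycin control wells; wells of about 8 µL received 7.5 nL stock; the first replicate is given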
Bfl-1 A1 inh – inhibitors of the anti-apoptotic protein A1, read as caspase activation | MEF A1-2A-BIM cells, Caspase-Glo 3/7 luminescence, 3 h; percent of clofoctol response, vehicle zero | caspase activation, % (concentration not given with the values) | 330,000 tested, 0.066% active | AID 2462;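 active = over half of replicate activation scores above 10%, or exactly half above 10 with the replicate mean above 10; inconclusive = replicate mean below 10 yet half the replicates above 10; inactive = over half of replicates below 10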;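 note: wells of about 30 µL received 50 nL stock; many hits fall short of the cut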
RanGTP-Impb inh – inhibitors of RanGTP-importin-beta interaction, primary screen, biochemical, FRET, CFP-Ran, YFP-importin-beta, homogeneous | 300,000 tested, 1.1% active | inhibition, % (no concentration beside the values) | cell-free CFP-Ran/YFP-importin-beta FRET ratio;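 active = most replicates above 15%; inconclusive = exactly half above 15%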;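 note: 0% = DMSO wells and 100% = Ran loaded with GDP instead of GTP; wells of about 40 µL received 100 nL stock; the first replicate is given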
Numbers without * were called inactive; ? = inconclusive; · = no result given.

Second line of a record: Calb FLC	Vif A3G	AF4-AF9 inh	RanGTP-Impb inh	T cruzi repl	Beta apoptosis	LANA-H2B inh	Bfl-1 A1 inh
[1] CC(C)N(C(=S)Nc1cccc(C(F)(F)F)c1)C(C)c1ccccn1 (stereo not given)
    1	·	-1.6	2.1	-3	-1	-4.2	0.7
[2] COc1ccc2[nH]c(=O)c(CN(Cc3cccs3)C(=S)Nc3cccc(C)c3)cc2c1
    -5	·	3.9	-4.5	41	12	1.9	0.0
[3] CCn1cc(CN2CCN(C)C(CCO)C2)c2ccccc21 (stereo not given)
    -1	·	8.3	-3.6	38	·	-1.8	0.6
[4] CC1CCCCN1CCCNC(=O)c1ccc2nc(N3CCCCC3)sc2c1 (stereo not given)
    -7	·	-5.6	4.8	5	1	-5.0	-0.3
[5] CCc1ccc(NC(=O)C(C)OC(=O)/C=C/c2ccc(O)c(OC)c2)cc1 (stereo not given)
    ·	-1%	-3.6	·	·	5	3.8	-0.3
[6] CCN1C(=O)[C@@H]2[C@@H](c3ccc(-c4ccc(Cl)c(Cl)c4)cc3)N3CCC[C@@]3(C(=O)OC)[C@@H]2C1=O
    ·	·	7.0	·	·	-7	-0.3	0.1
[7] Cc1nc(-c2cccc(NC(=O)c3cccc(S(=O)(=O)N4CCCC4)c3)c2)cs1
    ·	-5%	1.6	·	·	6	0.7	0.8
[8] O=C(CN1CCCC1)Nc1ccc(OC(F)(F)F)cc1
    -2	9%	0.8	0.1	-4	·	2.2	0.0
[9] O=C(Nc1nnc(S(=O)(=O)N2CCCC2)s1)c1ccccc1Br
    -7	·	-1.0	-0.5	-7	-11	4.4	0.9
[10] Cc1ccc(S(=O)(=O)N(CC(=O)O)c2ccc(Cl)c(C(F)(F)F)c2)cc1
    -7	·	-4.5	-2.1	-1	2	-6.3	-0.2
[11] CS(=O)(=O)c1ccc2nc(NC(=O)C3COc4ccccc4O3)sc2c1 (stereo not given)
    4	-2%	·	0.3	-5	-4	4.6	-6.6
[12] O=C1CN(C(=O)COC(=O)Cc2ccsc2)c2ccccc2N1
    ?	-7%	·	0.0	-12	-2	0.4	0.1
[13] Cc1ccsc1-c1nc(CSCC(=O)NCc2ccc3c(c2)OCO3)c(C)o1
    -3	2%	-0.1	?	3	-1	0.3	-0.2
[14] COc1cc2ccccc2cc1C(=O)Nc1ccc(N2CCN(C)CC2)cc1
    24	-5%	·	?	30	12	-4.5	0.1
[15] O=C1CSC(c2ccccc2)N1c1cccnc1 (stereo not given)
    -5	0%	2.3	0.5	-1	-9	0.9	0.2
[16] O=C(NCCNC(=O)C1CC2CCC1C2)C1CC2CCC1C2 (stereo not given)
    -9	-3%	·	1.2	-7	-1	-0.1	-0.5
[17] O=C(O)C1CC=CCC1C(=O)Nc1ccccc1C(=O)N1CCN(c2ccc(F)cc2)CC1 (stereo not given)
    -9	7%	-3.9	1.1	8	-10	-4.3	0.1
[18] COC(=O)C1=C(C)NC(=O)CC1c1ccccc1 (stereo not given)
    -1	-5%	·	1.5	3	-2	-5.5	0.9
[19] CN(C)C(=O)Cn1c(SCC(=O)N2CCCc3ccccc32)nc2ccccc21
    -20	0%	5.9	-2.1	-2	5	-0.1	0.4
[20] CC(C)NC(=O)CC1(C(=O)NCc2ccc(Cl)cc2)CCCC1
    -12	-6%	-0.3	7.1	-14	0	3.2	2.1
[21] COc1ccc(N2CCN(C(=O)c3ccccc3N(C)S(=O)(=O)c3ccccc3)CC2)cc1
    -19	7%	7.2	?	-1	0	-0.1	-0.1
[22] O=C(NCC(c1ccco1)N1CCc2ccccc2C1)C(=O)Nc1ccc(F)cc1F (stereo not given)
    -6	14%	-1.2	-1.3	24	6	-4.6	-0.2
[23] Cc1cc(C)n(CC(=O)n2nc(C)cc2C)n1
    -3	5%	·	2.1	-22	1	1.3	0.4
[24] O=C(O)/C=C/C(=O)Nc1cccnc1
    ·	63µM*	·	·	·	-3	-214	0.9
[25] CN(C)c1nc(Nc2ccccc2)nc(Oc2ccc(=O)[nH]n2)n1
    3	14%	·	?	4	3	-1.5	0.0
[26] CCOc1ccc(/C=C/C(=O)N2CCOCC2)cc1OC
    2	5%	0.2	-0.9	-2	·	-0.8	0.1
[27] Cc1cc(C)c2c(N)c(C(=O)NN)sc2n1
    -2	8%	1.5	2.1	-7	-12	-2.2	1.0
[28] NC(=O)CN1C(=O)/C(=c2\sc3nc(=O)c(Cc4ccccc4)nn3c2=O)c2ccccc21
    -10	-13%	·	?	-4	-8	-5.9	0.1
[29] O=C(COC(=O)c1ccccc1)NCCC1=CCCCC1
    ?	2%	-0.6	-2.6	8	-8	-1.0	-0.1
[30] O=C(NCc1cccnc1)Nc1cccc(NC(=O)NCc2cccnc2)c1F
    -5	5%	-5.3	0.5	-6	·	3.7	-0.5
[31] O=C(Cc1ccccc1)Nc1c2c(nn1-c1cccc(Cl)c1)CS(=O)(=O)C2
    13	11%	·	0.1	0	-1	-0.2	-0.2
[32] CC(=O)Nc1ccc(S(=O)(=O)NC(C)C(=O)NC(C)c2ccccc2)cc1 (stereo not given)
    -4	-18%	-3.4	-0.3	-9	0	-0.9	0.6
[33] O=S(=O)(c1cccc(-c2nnc(-c3ccc(Br)cc3)o2)c1)N1CCCCCC1
    13	-17%	·	-5.2	28	4	-7.3	0.1
[34] COc1cc(NC(=O)CNc2cccc(S(=O)(=O)N3CCCC3)c2)cc(OC)c1
    -5	-5%	-1.2	6.3	13	-3	1.2	0.0
[35] Cn1c(=O)c2c(nc(SCc3ccccc3F)n2C)n(C)c1=O
    -8	-2%	4.1	6.4	5	-1	0.5	?
[36] COc1ccccc1N1CCN(C2CCN(C(=O)c3cccc(F)c3)CC2)CC1
    3	5%	-5.7	3.9	-1	-7	-4.5	-0.4
[37] Cc1ccc(C(=O)Nc2cccnc2)cc1[N+](=O)[O-]
    4	?	1.3	0.5	-13	0	1.5	-0.1
[38] COC(=O)CCCC[C@H]1SC[C@H]2NC(=O)N[C@]21O
    3	?	·	-1.9	0	0	1.3	-0.5
[39] CN(C)c1ccc(NC(=O)CN2C3CCCC2CC(NC(=O)c2ccccc2)C3)cc1 (stereo not given)
    -8	·	20	?	21	-1	-6.7	-0.1
[40] CCSc1nnc(NC(=O)NCC(F)(F)F)s1
    -3	5%	·	-1.3	-5	-2	-0.6	-0.4
[41] COc1ccc(NS(=O)(=O)c2cccc(C(=O)O)c2)cc1S(=O)(=O)N1CCCCC1
    ·	·	2.9	·	·	-1	-4.4	0.8
[42] COc1cc(/C=C2/N=C(c3ccccc3)OC2=O)c(F)cc1OCc1ccccc1
    -8	·	2.1	-3.0	-5	-9	2.4	0.6
[43] CCOc1ccc(CCNC(=O)c2cccc(C#N)c2)cc1OCC
    25	-5%	-0.1	-2.2	3	-1	-0.9	0.3
[44] CCN(Cc1cc(=O)[nH]c2ccccc12)C(=O)C(C)C
    -5	-1%	4.7	0.8	-11	-10	-0.7	1.9
[45] Cc1sc2nc(SCC(=O)NCCOCCO)n(C)c(=O)c2c1C
    8	16%	·	·	7	5	4.1	·
[46] CC(C)CN(CCNC(=O)CN1N=C(c2ccc(Cl)cc2)CCC1=O)CC(C)C
    -3	·	4.5	-1.7	-16	-2	6.2	-0.2
[47] COC(=O)[C@H]1[C@H]2C[C@@H]3c4[nH]c5cc(OC)ccc5c4CCN3C[C@H]2C[C@@H](OC(=O)/C=C/c2cc(OC)c(OC)c(OC)c2)[C@@H]1OC
    ·	·	12	·	·	4	0.8	-0.3
[48] CC1=C(C(=O)OC2CCCCC2)C(c2cccnc2)n2ncnc2N1 (stereo not given)
    -4	-6%	5.2	0.5	62*	-12	1.6	0.1
[49] CCC(C(=O)O)P(=O)(c1ccc(Cl)cc1)c1ccc(Cl)cc1 (stereo not given)
    -33	?	-1.2	?	-10	-1	13*	-0.5
[50] COc1ccc(N2CCN(C(=O)Cc3csc(NC(=O)Nc4ccccc4OC)n3)CC2)cc1
    -10	-1%	3.3	1.7	-5	6	-0.5	0.3

Carrying on.
Second line of a record: Calb FLC	Vif A3G	AF4-AF9 inh	RanGTP-Impb inh	T cruzi repl	Beta apoptosis	LANA-H2B inh	Bfl-1 A1 inh
[51] COc1ccccc1CCCNC(=O)C1CCC(=O)N(CCc2ccc(Cl)cc2)C1 (stereo not given)
    4	·	1.4	8.9	-11	6	-0.2	0.0
[52] Cc1ncc(CO)c(/C=N/NC(=O)c2ccc(O)cc2)c1O
    -1	·	·	44*	-5	4	7.2	1.5
[53] CC12COC3(C(=O)N4CCN(c5ccccn5)CC4)CC1CCC32C (stereo not given)
    -6	8%	1.6	0.8	-16	-2	-1.7	0.5
[54] CCC(C)[C@H]1COCCS(=O)(=O)N1Cc1ccccc1F (stereo not given in full)
    12	·	-23	-5.0	-14	2	-0.4	1.2
[55] COc1ccc(C)cc1NC(=O)CN(c1ccc(C)cc1)S(C)(=O)=O
    8	7%	0.4	0.2	-3	-7	5.9	1.4
[56] O=C(C[C@@H]1C/C=C\C[C@@H](Cc2ccc(F)cc2)C(=O)OC[C@@H](Cc2c[nH]c3ccccc23)NC1=O)NCCO
    ·	·	0.7	·	·	4	1.2	-0.1
[57] OC(CNCCNc1ncccc1C(F)(F)F)COc1ccc(F)cc1 (stereo not given)
    -7	2%	-0.4	-0.4	8	5	0.5	0.5
[58] COc1ccc(CN(C(=O)c2oc3ccc(F)cc3c2C)C2CCS(=O)(=O)C2)cc1 (stereo not given)
    11	-1%	0.4	2.4	5	·	-1.7	0.9
[59] O=C1NCCN(Cc2c(F)cccc2Cl)C1CC(=O)N1CCCO1 (stereo not given)
    -15	-5%	-7.7	6.0	-12	·	-2.5	1.6
[60] O=C(CP(=O)(CO)CO)c1ccc(Cl)cc1
    -6	6%	·	0.1	-14	-2	12	0.1
[61] Cc1cc2cc(C(c3nnnn3C3CCCC3)N(Cc3cccnc3)Cc3ccco3)c(=O)[nH]c2cc1C (stereo not given)
    11	6%	·	-2.3	3	-3	1.8	0.9
[62] COC(=O)[C@H]1C[C@@H]1[C@H](NS(=O)(=O)c1ccccc1)c1ccccc1
    27	-5%	1.8	3.0	-15	-5	6.0	-0.1
[63] CN(C)c1ccc(CNC(=O)CN(C)S(=O)(=O)c2ccc3c(c2)c(=O)n(C)c(=O)n3C)cc1
    -12	7%	-0.3	1.3	-1	1	2.4	0.4
[64] C=C(C)Cn1c(C2CC(=O)N(Cc3ccccc3)C2)nc2ccccc21 (stereo not given)
    -2	·	-4.3	-0.3	10	1	4.2	0.3
[65] COc1ccc(NC(=O)Cn2nc(C(=O)O)c3ccccc3c2=O)cc1OC
    1	·	-3.2	3.4	-5	0	2.3	-0.1

Sorted by value in LANA-H2B inh (descending): 3 from the list above
nr	Compound	Vif A3G	AF4-AF9 inh	RanGTP-Impb inh	LANA-H2B inh
62	COC(=O)[C@H]1C[C@@H]1[C@H](NS(=O)(=O)c1ccccc1)c1ccccc1	-5%	1.8	3.0	6.0
64	C=C(C)Cn1c(C2CC(=O)N(Cc3ccccc3)C2)nc2ccccc21 (stereo not given)	·	-4.3	-0.3	4.2
63	CN(C)c1ccc(CNC(=O)CN(C)S(=O)(=O)c2ccc3c(c2)c(=O)n(C)c(=O)n3C)cc1	7%	-0.3	1.3	2.4

Hits appear at their usual frequency; any-hit rate near 4.3%.
